Assay outcomes as filed in PubChem BioAssay.
NPYLR7 agonist: mosquito NPYLR7 agonism. HEK293T NPYLR7/Galpha15, GCaMP6s calcium fluorescence. activation, % at 10 µM. 270,000 tested, 0.15% active; in the data active = activation above about 40%;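 note: 0% = vehicle and 100% = reference agonist at the receptor; some compounds past the cut are filed as inactive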
NPYLR7 agonist max-min: also measured in NPYLR7 agonist; calls as there; activation, %; measured here: Max-Min RFU normalised activation; some inactives read as strong as hits;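 span of the calcium signal over five minutes; 0% = vehicle and 100% = native peptide agonist; compound fluorescence can raise it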
Starred values were filed as active, the others as inactive.

Second line of a record: NPYLR7 agonist	NPYLR7 agonist max-min
CCCc1cc(NC(=O)CCl)n(-c2ccccc2)n1
  0	-2
O=S(=O)(N1CCOCC1)N1CCCCC1CCc1ccccc1 (stereo not given)
  2	3
CC(C)NC(=O)N(Cc1cccc(F)c1)CC1CC(c2ccc(F)cc2F)=NO1 (stereo not given)
  19	13
CC(NC(=O)C1(C)CCCCC1)C1CC2CCC1C2 (stereo not given)
  2	9
COc1cccc(C2C3=C(CCCC3=O)N(c3ncn[nH]3)C(=N)C2C#N)c1 (stereo not given)
  1	5
CCOc1ccc(CN2CCN(C)C3(CCN(C)CC3)C2)c(OCC)c1C
  16	-2
COc1cc(-c2nc3ccccn3c2NC(C)(C)CC(C)(C)C)ccc1OC(=O)COc1ccccc1
  -6	4
O=C(N/N=C\c1c[nH]c2ccccc12)c1[nH]nc2c1CCc1ccccc1-2
  5	6
FC(F)(F)c1ccccc1Oc1ccc2c(C3CC3)noc2n1
  2	0
Cc1cccc(CNC(=O)C(C2CCCC2)N2CCN(C(=O)c3cccc(Br)c3)CC2)c1 (stereo not given)
  -11	-3
COc1ccccc1-c1ccnc(-n2ncc(C(=O)NC(c3ccncc3)c3ccc(C)cc3)c2C)n1 (stereo not given)
  34	23
Cc1nc(SC(C)c2ccccc2)[nH]c(=O)c1CC(=O)N1CCCC1 (stereo not given)
  -11	-15
COCC(C)n1c(C)cc(-c2csc(N)n2)c1C (stereo not given)
  4	3
O=c1oc2ccccc2n1CCN1CCCC2(CCNC2)C1 (stereo not given)
  7	3
CCn1ncnc1C1CC(=O)Nc2n[nH]c(-c3cccs3)c21 (stereo not given)
  0	0
Cc1noc(-c2ccc(C(C)(C)C)cc2)c1C(=O)NCC1COC(C)(C)O1 (stereo not given)
  0	12
FC(F)(F)c1ccc(N=c2oc3ccc(Br)cc3cc2-c2nc3ccccc3[nH]2)cc1
  2	10
COc1cn(CC(=O)Nc2ccccc2C)c(CN2CCN(c3ccccc3)CC2)cc1=O
  -2	-4
O=C(CSc1nnnn1-c1ccccc1)Nc1cccc([N+](=O)[O-])c1
  -5	-2
CCOCCn1c(=O)c2c(nc3n(C(C)c4ccccc4)c(C)c(C)n23)n(C)c1=O (stereo not given)
  -2	-2

Entries of single compounds as entered above. Order of values: NPYLR7 agonist | NPYLR7 agonist max-min
CC(NC(=O)C1(C)CCCCC1)C1CC2CCC1C2 (stereo not given) is listed with 2 | 9
O=S(=O)(N1CCOCC1)N1CCCCC1CCc1ccccc1 (stereo not given) is listed with 2 | 3
CCOCCn1c(=O)c2c(nc3n(C(C)c4ccccc4)c(C)c(C)n23)n(C)c1=O (stereo not given) is listed with -2 | -2
Cc1cccc(CNC(=O)C(C2CCCC2)N2CCN(C(=O)c3cccc(Br)c3)CC2)c1 (stereo not given) is listed with -11 | -3
O=C(N/N=C\c1c[nH]c2ccccc12)c1[nH]nc2c1CCc1ccccc1-2 is listed with 5 | 6

Returning to the listing, starting 3 compounds before the break.
Second line of a record: NPYLR7 agonist	NPYLR7 agonist max-min
COc1cn(CC(=O)Nc2ccccc2C)c(CN2CCN(c3ccccc3)CC2)cc1=O
  -2	-4
O=C(CSc1nnnn1-c1ccccc1)Nc1cccc([N+](=O)[O-])c1
  -5	-2
CCOCCn1c(=O)c2c(nc3n(C(C)c4ccccc4)c(C)c(C)n23)n(C)c1=O (stereo not given)
  -2	-2
CCOC(=O)c1cc(C(C)(C)C)n(C2CCN(C(=O)c3cccc(C#N)c3)CC2)n1
  18	12
Cc1cccc(N2C(=O)CC(NCc3ccc(S(N)(=O)=O)cc3)C2=O)c1 (stereo not given)
  3	0
CC(=O)Nc1cccc(C(=O)NC(C)c2cnn(-c3ccccc3C)c2C)c1 (stereo not given)
  9	11
COc1ccccc1C1c2[nH]c3ccccc3c2CCN1C(=O)CCc1scnc1C (stereo not given)
  -12	-13
Cc1cc(C)n(CCn2ccnc2-c2cccc(-n3cccn3)c2)n1
  1	-4
COc1cccc(C(c2c(O)cc(C)n(Cc3ccco3)c2=O)N2CCC(C)CC2)c1 (stereo not given)
  15	6
O=C(NCc1ccncc1)c1cnn(-c2ccccc2)c1-c1ccccc1
  7	-3
Cc1c(C(=O)N(C)C)c(C(F)(F)F)nn1C1CCCN(C)C1 (stereo not given)
  16	10
CN(C)CCN(C(=O)CCCS(=O)(=O)c1ccccc1)c1nc2c(F)cc(F)cc2s1
  6	5
CC(Cl)C(=O)N1CCC(CCc2ccccc2)CC1 (stereo not given)
  2	-3
CC(C)CNC(=O)NNC(=O)c1cccn(Cc2cccc(Cl)c2)c1=O
  7	3
COc1ccc(CN(Cc2cccc(C(F)(F)F)c2)Cc2nc(C(=O)NCc3ccccc3)co2)c(OC)c1
  15	12
O=C(NCCc1nc(-c2cccnc2)n[nH]1)c1nc2c(s1)CCCC2
  -2	-4
CCC(C(=O)Nc1c(-c2ccc(C)cc2)nc2ccccn12)c1ccccc1 (stereo not given)
  -2	1
Cn1c(=S)n(-c2ccc([N+](=O)[O-])cc2[N+](=O)[O-])c2ccccc21
  -2	-3
CCS(=O)(=O)c1ccc(C)c(C)c1
  -1	6
CNc1ccc(O)cc1
  -12	-17
CN1CCN(C(=O)c2nn(-c3ccc(Cl)cc3)c(=O)n(Cc3cccc(Cl)c3)c2=O)CC1
  11	16
Cc1cccc(C(C2Sc3nc(C)nn3C2=O)N2CCCC2)c1 (stereo not given)
  2	-2
COC(=O)c1ccc(C(=O)NC2CC(=O)N(Cc3cccc(F)c3)C2)cc1 (stereo not given)
  8	3

Later entries.
Second line of a record: NPYLR7 agonist	NPYLR7 agonist max-min
O=C(c1cccs1)N1CCN(c2nc(-c3ccco3)nc3cc(Cl)ccc23)CC1
  3	17
COCCN(CC(=O)Nc1cc(C(C)(C)C)nn1-c1ccc(C)cc1C)C(=O)c1ccc(OC)cc1OC
  2	9
COc1ccc(/C=C2\Oc3c(ccc4c3CN(Cc3ccncc3)CO4)C2=O)cc1
  67*	61*
CSCCC(=O)Nc1ccc(-c2cccc(-c3ccc4c(c3)OCCO4)n2)cc1
  3	8
Cc1cc(C)n(CCCNC(=O)N2CC3CC4CC(C3)CC2C4)n1
  -1	-1
Cc1ccc(C2NC(=O)N(C)C3=C2C(=O)N(Cc2ccccn2)C3)c(C)c1 (stereo not given)
  -2	2
COc1ccc2nc(-n3nc(C)cc3NC(C)=O)sc2c1
  -7	-13
COC(=O)C1C2C=CC3(CN(CC4CCCO4)C(=O)C13)O2 (stereo not given)
  -1	-2
NC(=O)c1c(SCc2cccnc2)sc2c(O)cc(=O)[nH]c12
  1	1
CCCN(Cc1ccc(OC)cc1)C(=O)c1cc(C(F)(F)F)nn1C
  19	8
COC(=O)N1N=C2CCCCC2C1(O)C(F)(F)F (stereo not given)
  2	0
O=C(CSc1ccc(-c2ccc3c(c2)OCO3)nn1)NC1CCCCC1
  16	13
COC(=O)c1sc(N2C(=O)C(=O)C(=C(O)c3ccc(C)cc3)C2c2ccc(OC)cc2)nc1C (stereo not given)
  0	-1
CC(C)(N)COc1ncc(Cl)cc1Cl
  4	0
CC1CCC2(CC1)NC(=O)N(NC(=S)NC1CC3CCC1C3)C2=O (stereo not given)
  0	6
O=C(Nc1nc(-c2ccc([N+](=O)[O-])cc2)cs1)c1ccccc1
  0	-2
O=C(CSc1cccc[n+]1[O-])N1c2ccccc2Sc2ccccc21
  4	0
COc1ccc(NC(=O)Nc2ccc(-n3nc(OC)nc3-c3ccccc3F)cc2)cc1
  -19	-16
CN(Cc1ccc(Br)cc1)Cc1cc2c(cc1O)CCC2
  -5	-6
CC#CC(=O)N1CCCC(C(=O)c2ccc(-c3ccccc3)cc2)C1 (stereo not given)
  3	2

Next section
Second line of a record: NPYLR7 agonist	NPYLR7 agonist max-min
Cc1cc(C)cc(-c2nc3cc(C)ccn3c2N)c1
  -2	-1
O=C(Nc1ccnn1Cc1ccccc1Cl)C1Cc2cc(Cl)ccc2O1 (stereo not given)
  10	8
CC(C)N(CC(=O)N(CCc1c[nH]c2ccccc12)Cc1ccc(C(F)(F)F)cc1)C(=O)Nc1c(Cl)cccc1Cl
  -5	-2
O=C(NC1(c2nn[nH]n2)CCCC1)c1ccc2ccccc2c1
  8	5
O=C(C1CC1)N1CCN(c2nc(C3CCOCC3)nc3c2cnn3-c2ccccc2)CC1
  -17	-3
CN(C)C(=O)COC(=O)c1ccc(-c2ccc(C(=O)OCC(=O)N(C)C)s2)s1
  1	4
O=S(=O)(NCC1(c2ccccc2)CCOCC1)c1ccc(Cl)s1
  9	6
CN(Cc1ccccc1)S(=O)(=O)c1ccc(-c2nc(C#N)c(NCc3cccnc3)o2)cc1
  -1	10
CSc1ccc(NC(=O)C2CC2)nn1
  0	2
Cc1cc(C)cc(OCC(=O)NC(C)c2ccc(-n3ccnc3)cc2)c1 (stereo not given)
  13	8
Cc1nn(C)c2ncc(C(=O)NC3CCCCC3CNC(=O)OC(C)(C)C)cc12 (stereo not given)
  0	-1
COc1ccc(NC(=O)C2CCN(C(=O)[C@@H](Cc3ccccc3)NC(=O)COc3ccccc3)CC2)cc1
  36	37
CC1CC(N2CCn3c(nnc3C(C)C)C2)C(=O)O1 (stereo not given)
  10	7
CC(C)c1noc(-c2ccc(NCc3ccccc3-n3cncn3)nc2)n1
  7	3
CC1CCN(C(=O)Nc2ccc(Br)cc2)CC1
  7	4
CCOc1c(C)cc(S(=O)(=O)Nc2ccc3c(c2)CN(C(=O)C(C)C)CC3)cc1C
  5	1
CCOc1ccc(C2C3C(=O)CC(C)(C)CC3=Nc3ccccc3N2C(C)=O)cc1 (stereo not given)
  0	3
COc1ccc(-c2noc(-c3c(SC)nn(CC(=O)NCc4ccccc4)c3N)n2)cc1OC
  -3	-15
COCCCN(CC(=O)N(CCc1c[nH]c2ccccc12)Cc1ccc(C(F)(F)F)cc1)C(=O)c1ccc(Cl)cc1
  15	10
O=c1ccc(=O)n(Cc2nc(CCc3ccccc3)n[nH]2)[nH]1
  7	5

(more compounds)
Second line of a record: NPYLR7 agonist	NPYLR7 agonist max-min
Cc1cc(NC(=O)c2ccc(F)cc2Cl)sc1C(=O)O
  7	6
COCCN1C(=O)/C(=C\c2ccco2)SC1=S
  -2	-9
CC(C)n1nccc1C(=O)N1CCN(c2nc3ccc(OC(F)(F)F)cc3s2)CC1
  0	-1
COc1cccc(-n2cnnc2C(c2ccccc2)c2ccccc2)c1
  0	-6
O=C(Cc1ccon1)NC(c1ccccc1F)C1CCCC1 (stereo not given)
  2	1
CC1(C(=O)NS(=O)(=O)Cc2cccc(Cl)c2)CCN1C(=O)C1(c2ccc(Cl)cc2)CCC1 (stereo not given)
  2	2
CC1CN2C(=O)CN(C(=O)Nc3ccc(F)c(F)c3F)CC2c2ccccc21 (stereo not given)
  27	13
COc1cc(OC)cc(C(=O)Nc2c3c(nn2C(C)(C)C)CS(=O)C3)c1 (stereo not given)
  3	1
CC(C)CC(=O)Nc1ccnn1C1CCN(Cc2ccc(Cl)s2)CC1
  18	6
CC(C)Oc1ccc(-c2cc(C(=O)N/N=C\c3cccnc3)[nH]n2)cc1
  1	-4
NC(=O)c1ccnc(N2CCC(N3CCCC3=O)CC2)c1
  0	-3
CC(C)c1ccc(S(=O)(=O)N=C2C=C(Cl)C(=O)c3ccccc32)cc1
  5	6
O=C(OCCc1cn[nH]c1C(F)(F)F)c1ccc2c(c1)OCCO2
  -1	-3
Cc1cc(C)cc(-c2nc3ccccn3c2NC(=O)c2ccccc2)c1
  -7	-5
COC(=O)c1cc(N2C[C@H]3CC=C(C)C[C@H]3C2)ncn1
  4	-4
NC/C=C\C(=O)O
  8	-8
O=C1OC(c2cccc([N+](=O)[O-])c2)=N/C1=C/c1cccnc1
  -6	-12
Cc1cc(CNC(=O)CC2C(=O)NCCN2CC(c2ccccc2)c2ccccc2)nn1C (stereo not given)
  -2	-4
COc1ccc(CCOC(=O)C2CCCCN2C(=O)c2cccnc2Nc2cccc(C)c2C)cc1OC (stereo not given)
  -7	-12
CCOC(=O)CC1CCCCN1Cc1nc(-c2cccc(F)c2)oc1C (stereo not given)
  0	-5

The listing continues:
Second line of a record: NPYLR7 agonist	NPYLR7 agonist max-min
O=C(NCCC1COc2ccccc2O1)c1ccc(N2CCSCC2)nc1 (stereo not given)
  8	-5
Cc1cc(C=C2Sc3ccccc3N2C)cc(C)[n+]1-c1ccccc1
  76*	56*
O=C(NC(c1cccs1)C1CC1)c1ccncc1 (stereo not given)
  -1	-1
CCC(NC(=O)Cc1c(C)nc(C)[nH]c1=O)c1cccs1 (stereo not given)
  14	7
COc1c(F)cccc1C(=O)N1CCCC(O)(CO)C1 (stereo not given)
  3	-4
COc1ccc(OC)c(NC(=O)COC(=O)c2ccc3nccnc3c2)c1
  3	-1
CC(C)(C)CC(=O)NNC(=O)c1ccc(C(C)(C)C)cc1
  1	0
CCN(CC)C(=O)Oc1ccc2c(ccn2Cc2cccc(Oc3ccccc3)c2)c1-c1ccc(F)c(F)c1
  13	13
CN(C)S(=O)(=O)c1ccc(-c2csc(-c3ccc(Cl)cc3)n2)cc1
  5	3
CS(=O)(=O)NC(=O)c1cnc2c(cnn2C2CCCC2)c1
  6	5

Only part of the results is shown, so the mix of outcomes need not match the whole.
